# Rango release inh = inhibitors of RanGTP-induced Rango-importin beta complex dissociation; O95149+P62826; actives 0.071% (n = 340,000); AID 540253; Potency, µM (titrated, usually from 46.1 µM), inactives show at the top dose activity change, negative = inhibition; Biochemical FRET Rango-importin beta, RanGTP-induced dissociation; active means falling FRET ratio curve, often poorly fitted, with flat reads before Ran was added; inconclusive means other falling curves, or compound fluorescence or quenching; inactive means flat or rising ratio curve;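 further: potency means the concentration at half of the fitted maximal effect; % of control where 0% means no effect; nearly all actives have a fitted effect of over 45% in size; -100% = wells without RanGTP and RCC1; the record marks most hits as doubtful in a second field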
#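 Rango/importin beta premix (0.1/0.25 uM final), PBS + 1 mM DTT + 0.02% Tween-20 + 0.1% BSA; cpd 5 min RT; FRET pre-read; + RanGTP-RCC1 (0.6 uM Ran, 2 mM GTP, 0.2 uM RCC1); 45 min RT; FRET post-read, ex 430, em 486/530 nm.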
# Rango-impB inh = inhibitors of Rango-importin beta complex formation | Rango CFP/YFP FRET sensor + importin beta, 45 min | Potency, µM (series often up to 92.2 µM), for inactives: at the top dose inhibition of complex formation | AID 540263 | actives 0.031% (n = 340,000) | Q14974; active = rising FRET ratio curve, often small or poorly fitted; inconclusive = mostly compound fluorescence or quenching in the first reads; inactive = flat curves in all reads;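 further: potency means the concentration at half of the fitted maximal effect; 0% = DMSO wells and 100% = buffer wells lacking importin beta; nearly all actives have a fitted effect of over 15% in size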
# Target sequence (Q14974 whole entry, looked up): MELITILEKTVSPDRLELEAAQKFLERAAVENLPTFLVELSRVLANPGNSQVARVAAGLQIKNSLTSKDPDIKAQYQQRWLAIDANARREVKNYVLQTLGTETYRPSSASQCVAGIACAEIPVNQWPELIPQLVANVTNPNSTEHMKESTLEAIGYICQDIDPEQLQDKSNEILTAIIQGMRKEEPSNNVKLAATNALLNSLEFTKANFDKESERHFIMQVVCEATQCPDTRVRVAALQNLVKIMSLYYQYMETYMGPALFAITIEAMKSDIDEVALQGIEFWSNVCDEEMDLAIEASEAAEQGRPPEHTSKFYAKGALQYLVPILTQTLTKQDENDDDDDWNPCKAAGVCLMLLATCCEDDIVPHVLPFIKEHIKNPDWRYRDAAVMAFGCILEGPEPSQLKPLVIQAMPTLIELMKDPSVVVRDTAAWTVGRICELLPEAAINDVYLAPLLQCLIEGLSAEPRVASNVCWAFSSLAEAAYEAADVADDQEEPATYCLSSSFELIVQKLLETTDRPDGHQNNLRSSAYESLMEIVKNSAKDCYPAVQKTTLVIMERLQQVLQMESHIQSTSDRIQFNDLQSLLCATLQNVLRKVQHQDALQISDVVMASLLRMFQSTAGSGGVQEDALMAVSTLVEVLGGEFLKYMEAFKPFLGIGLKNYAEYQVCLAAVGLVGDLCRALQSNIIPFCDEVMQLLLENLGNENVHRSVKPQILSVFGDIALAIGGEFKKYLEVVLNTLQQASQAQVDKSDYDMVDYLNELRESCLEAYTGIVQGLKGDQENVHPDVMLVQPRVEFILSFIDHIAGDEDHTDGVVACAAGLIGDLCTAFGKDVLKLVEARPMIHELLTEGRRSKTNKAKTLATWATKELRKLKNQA
#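 FRET biosensor (snurportin 1 IBB flanked by EYFP and cerulean), 50 nM, with compound 5 min, then 0.125 microM importin beta in PBS, 1 mM DTT, 0.02% Tween-20, 0.1% BSA. CFP/YFP ratio read after 45 min at room temperature; pre-read flags interference.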
# miR-21 reporter = miR-21 reporter, rising signal | HeLa miR-21 FLuc reporter, luciferase, 48 h | Potency, µM (top dose mostly 38.3 µM), for inactives: at the top dose reporter change, positive = more light | 340,000 tested, under 10 active; active = well fitted rising curve with a large enough effect; inconclusive = small, poorly fitted or top-dose-only effect; inactive = no such curve, though single readings can be large or run the other way;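 further: % of control where 0% means no effect; miR-21 action dims this reporter so a rising signal means less miR-21 action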
#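 Compounds were titrated across several concentrations (up to approximately 40 uM) and incubated 48 hours with HeLa miR-21-FLuc reporter cells (miR-21 target sequence downstream of FLuc, endogenous miR-21). Readout was firefly luciferase luminescence after lytic detection reagent.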
# GLA inh pH 4.5 = inhibitors of human alpha-galactosidase A at pH 4.5 | purified enzyme, 4-MU-alpha-Gal fluorescence, pH 4.5 | AID 1467 | activity change, negative = inhibition, % at 105 µM | P06280 | 230,000 tested, under 10 active; inconclusive = small, poorly fitted or top-dose-only inhibition, or a rising curve; inactive = flat fitted curve, though single readings scatter; no compound was filed as active;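 further: 0% = full activity with enzyme and -100% = basal without enzyme; dose as in the result columns while the protocol names 77 µM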
# Numbers without * were called inactive; ? = inconclusive; nt = no result given; & = joins results of further samples; [ ] = another dose, or the depositor's remark. An excerpt; count on the stated rates, not on these rows.
SMILES,Rango release inh,Rango-impB inh,miR-21 reporter,GLA inh pH 4.5
COc1ccc(Cc2nc3ccc(C(=O)NCCn4ccnc4C)cc3o2)cc1OC,-1.7%,7.6%,-1.3%,nt
Cn1c(NC(=O)c2ccc(F)c(F)c2)cc(=O)n(C)c1=O,-1.8%,0.3%,-7.0%,6.9
O=C(O)C1CCCCC1C(=O)NC1CCCCC1 (configuration not stated),0.4%,-2.2%,-0.3%,-4.7
COc1ccc(-c2ncc(CN3CCN(CCC(C)C)C(CCO)C3)cn2)cc1 (configuration not stated),-0.7%,-0.8%,-19.9%,-1.3
CN1CCN(C(=O)CSc2ccc(C(F)(F)F)cc2[N+](=O)[O-])CC1,4.6%,-3.1%,-6.0%,-3.2
O=C(NCc1ccccc1)c1ccc(Cl)nc1,-0.9%,-0.6%,-65.0%,12.3
CCOC(=O)C1CCN(S(=O)(=O)c2c(C)[nH]c(=O)[nH]c2=O)CC1,13.5%,-2.5%,-7.0%,0.7
O=C(CSc1nc2ccccc2[nH]1)N/N=C/C=C\c1ccccc1[N+](=O)[O-],-4.0%,0.3%,-12.4%,7.3
O=C(O)c1ccccc1SCc1cn2cc(Cl)ccc2n1,-0.6%,4.4%,-22.7%,1.6
CC(=O)Nc1ccc(S(=O)(=O)N2CCSc3ccccc32)cc1,-2.0%,-1.0%,nt,nt
COc1ccc(C(=O)O)cc1S(N)(=O)=O,26.6%,-1.1%,0.4%,-8.8
COc1cc2c3c(c1)/C(=C1/SC(NC(C)=O)=NC1=O)C(=O)N3C(C)(C)C=C2C,2.5%,-0.2%,-6.0%,0.2
COc1ccc([C@H]2CC(=O)C=C(c3ccc(SC)cc3)C2)cc1OC,-15.3%,0.4%,nt,nt
Cc1ccccc1N1C(N)=NC(N)=NC1(C)C,3.9%,1.3%,-5.0%,1.2
Cc1nnc2c(NC3CCCCC3)nc3ccccc3n12,6.5%,0.7%,2.3%,nt
CCN(CC(=O)Nc1ccc(N2CCOCC2)cc1)C(=O)COc1ccccc1OC,0.6%,-0.7%,-19.7%,-3.2
CCN(CC)S(=O)(=O)c1ccc(N2CCOCC2)c(NC(=O)c2ccc3ccccc3c2)c1,?,2.7%,-3.8%,-12.9
O=C(Nc1cccc([N+](=O)[O-])c1)N(c1ccccc1)c1ccccc1,1.0%,2.2%,nt,nt
COc1ccc(N(C(=O)C2CCCCC2)C2C=CS(=O)(=O)C2)c(OC)c1 (configuration not stated),4.3%,-6.3%,0.3%,-11.6
Oc1ccc(/C=N\Nc2cc(N3CCOCC3)nc(N3CCOCC3)n2)c(O)c1,-11.6%,?,-7.1%,-3.8
O=C(Nc1ccc(N2CCOCC2)c2nonc12)C1CCCC1,-6.7%,4.4%,-45.3%,5.0
CCN(CC)C(=O)c1c(C)nc2ccccn12,-1.1%,3.9%,-1.3%,-0.7
Cc1ccc(S(=O)(=O)N2[C@@H](c3ccc(Br)cc3)C(C(=O)O)=C[C@H]2CC2CCCC2)cc1,20.8%,-2.6%,nt,nt
Cc1cc(=O)[nH]c(SCC(=O)Nc2cc(S(=O)(=O)N3CCCC3)ccc2Cl)n1,-6.4%,-2.8%,-13.6%,-8.2
O=C(CSc1nnc(CNc2ccc(F)cc2)n1Cc1ccccc1)N1CCOCC1,-0.4%,-1.1%,-6.9%,7.5

# Arranged by SMILES length (descending): 16 of the compounds above.
SMILES,Rango release inh,Rango-impB inh,miR-21 reporter,GLA inh pH 4.5
Cc1ccc(S(=O)(=O)N2[C@@H](c3ccc(Br)cc3)C(C(=O)O)=C[C@H]2CC2CCCC2)cc1,20.8%,-2.6%,nt,nt
COc1cc2c3c(c1)/C(=C1/SC(NC(C)=O)=NC1=O)C(=O)N3C(C)(C)C=C2C,2.5%,-0.2%,-6.0%,0.2
CCN(CC)S(=O)(=O)c1ccc(N2CCOCC2)c(NC(=O)c2ccc3ccccc3c2)c1,?,2.7%,-3.8%,-12.9
Cc1cc(=O)[nH]c(SCC(=O)Nc2cc(S(=O)(=O)N3CCCC3)ccc2Cl)n1,-6.4%,-2.8%,-13.6%,-8.2
O=C(CSc1nc2ccccc2[nH]1)N/N=C/C=C\c1ccccc1[N+](=O)[O-],-4.0%,0.3%,-12.4%,7.3
CCOC(=O)C1CCN(S(=O)(=O)c2c(C)[nH]c(=O)[nH]c2=O)CC1,13.5%,-2.5%,-7.0%,0.7
Oc1ccc(/C=N\Nc2cc(N3CCOCC3)nc(N3CCOCC3)n2)c(O)c1,-11.6%,?,-7.1%,-3.8
O=C(Nc1cccc([N+](=O)[O-])c1)N(c1ccccc1)c1ccccc1,1.0%,2.2%,nt,nt
COc1ccc(Cc2nc3ccc(C(=O)NCCn4ccnc4C)cc3o2)cc1OC,-1.7%,7.6%,-1.3%,nt
CC(=O)Nc1ccc(S(=O)(=O)N2CCSc3ccccc32)cc1,-2.0%,-1.0%,nt,nt
O=C(Nc1ccc(N2CCOCC2)c2nonc12)C1CCCC1,-6.7%,4.4%,-45.3%,5.0
O=C(O)c1ccccc1SCc1cn2cc(Cl)ccc2n1,-0.6%,4.4%,-22.7%,1.6
Cc1nnc2c(NC3CCCCC3)nc3ccccc3n12,6.5%,0.7%,2.3%,nt
Cc1ccccc1N1C(N)=NC(N)=NC1(C)C,3.9%,1.3%,-5.0%,1.2
O=C(O)C1CCCCC1C(=O)NC1CCCCC1 (configuration not stated),0.4%,-2.2%,-0.3%,-4.7
O=C(NCc1ccccc1)c1ccc(Cl)nc1,-0.9%,-0.6%,-65.0%,12.3

# Next part
SMILES,Rango release inh,Rango-impB inh,miR-21 reporter,GLA inh pH 4.5
O=C(CSc1ccccc1)Nc1cccc(S(=O)(=O)N2CCOCC2)c1,-13.1%,-3.0%,nt,nt
CCOc1ccc(N2C(=O)c3ccc(C(=O)OCc4c(C)noc4C)cc3C2=O)cc1,-10.0%,-2.7%,0.0%,2.3
Cc1ccc(N2CC(C(=O)Nc3nnc(C(C)C)s3)CC2=O)cc1 (configuration not stated),0.9%,1.8%,-1.8%,0.4
CCc1ccc(S(=O)(=O)Nc2cccc(C3OCCCO3)c2)cc1,8.8%,-0.2%,4.3%,-3.0[21.1 µM]
CCn1c(CC(=O)Nc2ccccc2OC)nnc1SCC(=O)Nc1ccccc1F,-6.2%,2.3%,4.3%,-3.5
CC(C)C(=O)Nc1ccc(C(=O)NNC(=S)NC(=O)c2ccco2)cc1,12.1%,1.9%,-0.6%,5.7
COCCn1c(SCC(=O)Nc2cc(C)on2)nc2ccccc21,0.3%,-1.5%,-2.8%,8.8
O=C(O)c1ccccc1Nc1cccc(OCc2ccc3ccccc3n2)c1,-12.5%,?,nt,-6.0&-13.9
CCOC(=O)N1CCC(NC(=O)CC(NS(=O)(=O)c2ccc(Cl)cc2)c2ccco2)CC1 (configuration not stated),1.2%,0.0%,-2.0%,2.9
O=C(CN(CCc1ccccc1)C(=O)CNS(=O)(=O)c1ccccc1)NCc1ccco1,-11.5%,-3.0%,2.5%,1.2
CC(=O)c1ccc(NC(=O)C(C)n2nc(-c3ccccc3)c3cc(Cl)ccc32)cc1 (configuration not stated),3.0%,-3.3%,17.2%,-11.1
O=Cc1ccc(Oc2cnccn2)cc1,1.4%,3.8%,1.5%,4.3
O=C(NC1(C(=O)NC2CCCCC2)CCCCC1)c1ccccn1,5.8%,0.6%,-8.1%,9.4
COC(=O)c1cc(NC(=O)C2COc3ccccc3O2)ccc1Cl (configuration not stated),-18.0%,0.0%,-32.5%,3.2
CC1CCCC(CC(N)=O)CC1 (configuration not stated),5.1%,0.6%,nt,nt
CC(C)n1ncc2c(C(=O)NCC(=O)Nc3ccccc3Br)cc(C3CC3)nc21,-12.8%,-0.7%,nt,nt
O=C1C=CC(=O)N1Cc1ccncc1,-15.8%,?,nt,nt
Cc1ccc(NC(=O)CN2C(=O)NC3(CCCCCC3)C2=O)cc1Cl,0.6%,-0.1%,nt,nt
O=C(NCC(c1ccco1)N1CCN(c2ccc(F)cc2)CC1)C1CCCCC1 (configuration not stated),1.8%,-0.6%,nt,nt
C#CCOCCOCCOCCNc1nc(N2CCN(C(=O)Cn3cc(CCCN=C(N)N)nn3)CC2)nc(N2CCN(C(=O)[C@H](CCCCN)n3cc(CC(C)O)nn3)CC2)n1 (some centres not stated),6.7%,3.5%,nt,nt
NC(=O)c1ccc(NC(=O)C2CCCO2)cc1 (configuration not stated),16.0%,2.2%,-3.7%,-22.8
CCc1noc(C)c1C(=O)OCC(=O)Nc1c(F)cccc1F,-26.2%,3.1%,nt,nt
COC(=O)C1=C(C)Nc2nnnn2C1c1ccco1 (configuration not stated),-3.9%,-1.3%,1.2%,3.6
Cc1ccc(NC(=O)CCC(=O)c2ccccc2)cc1,-19.4%,-0.4%,nt,nt
Cc1cccc(NC(=O)CN2CCN(C(=O)c3cnn(Cc4ccccc4)c3)CC2)c1C,-18.1%,2.4%,nt,nt
SMILES,Rango release inh,Rango-impB inh,miR-21 reporter,GLA inh pH 4.5
O=C(Cc1ccc(F)cc1)Nc1nc(-c2ccc(F)cc2)cs1,-6.7%,-0.7%,3.5%,nt
COc1cc2nc(-c3ccccc3C)oc(=O)c2cc1OC,-1.4%,0.1%,0.9%,nt
COc1ccc(C(=O)NC(=O)CSc2nnc(-c3ccco3)n2-c2ccccc2)cc1,-11.1%,8.7%,-1.1%,-1.3
CCN(C[C@H]1N[C@@](Cc2ccccc2)(C(=O)OC)[C@H]2C(=O)N(C)C(=O)[C@@H]12)C(=O)c1ccc(C)cc1,-0.3%,-0.6%,nt,nt
N#CCn1nnc(-c2ccc3c(c2)OCO3)n1,-12.1%,-0.4%,-13.6%,-5.4
Cc1cccc(NC(=O)[C@H](Cc2ccccc2)NC(=O)[C@@H]2Cc3ccccc3CN2)c1,0.0%,-1.3%,-11.6%,nt
Clc1cc2c(nn1)Nc1ccccc1S2,5.7%,1.2%,-10.1%,-3.4
CCOCC(=O)Nc1ccccc1C(=O)OCC,-4.5%,1.5%,-2.8%,-2.6
COc1ccc(N(CC(=O)NC2CC3CCC2C3)S(=O)(=O)c2ccc(C)cc2)cc1OC (configuration not stated),4.4%,-0.2%,-6.8%,nt
Cc1ccc(CCC(=O)Nc2ccc(C#N)cc2)o1,45.0%,5.4%,-3.4%,nt
CC(NC(=O)C(C)N1C(=O)C2C3CC(C(Br)C3Br)C2C1=O)c1ccccc1 (configuration not stated),0.6%,-0.8%,-0.2%,-1.3
O=S(=O)(Nc1cccc2ccccc12)c1ccccc1F,-3.3%,-3.5%,-32.3%,nt
COc1ccccc1C(=O)NCCC(=O)Nc1ccc(S(=O)(=O)N2CCCC(C)C2)cc1 (configuration not stated),0.2%,3.4%,nt,nt
CC(C)C[C@@H](CO)N1CCN(Cc2ccc(Br)cc2)CCC1=O,18.0%,-2.3%,10.8%,nt
Cc1ccc2[nH]c3c(=O)n(N)c(C)nc3c2c1,-5.3%,1.4%,-38.1%,-11.9
CN(c1ccccc1)c1nc(N)c([N+](=O)[O-])c(NC2CCCCC2)n1,31.8%,1.5%,-5.3%,nt
CC(Sc1nc2ccccc2o1)C(=O)O (configuration not stated),5.1%,0.0%,-37.2%,0.8
CC1CCN(C(=O)N2c3ccccc3Sc3ccccc32)CC1,10.4%,2.7%,12.8%,5.5
CC(C)c1nnc(NC(=O)CS(=O)(=O)c2ccccc2)s1,16.2%,-1.3%,1.2%,nt
O=c1[nH]c(SCc2cccc(F)c2)nc2ccccc12,-0.4%,1.9%,-13.3%,0.8
COc1cccc(C(=O)Nc2ccccc2N2CCOCC2)c1,1.2%,-1.8%,-4.3%,-20.9

# Part of the list above in another layout.
structure	Rango release inh	Rango-impB inh	miR-21 reporter	GLA inh pH 4.5
CC(NC(=O)C(C)N1C(=O)C2C3CC(C(Br)C3Br)C2C1=O)c1ccccc1 (configuration not stated)	0.6%	-0.8%	-0.2%	-1.3
O=S(=O)(Nc1cccc2ccccc12)c1ccccc1F	-3.3%	-3.5%	-32.3%	nt
